KCNQ2 pot = enhances the rat KCNQ2 potassium channel. CHO-K1 KCNQ2, FluxOR thallium flux fluorescence; stronger effect = higher value. B-score at 10 µM. 310,000 compounds, 0.54% hits. AID 2239;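 active = fluorescence ratio B-score at least 3 SD of library B-scores, with initial fluorescence B-score within 3 SD, cut at about 5.3 in these data; same plate scores as AID 2156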;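 also: B-score of peak minus minimum over baseline fluorescence ratio after K+ and Tl+ stimulus; positive B-score means potentiation of KCNQ2 with more thallium influx and brighter signal; only the inactives scoring about 0 or higher are listed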
Target sequence (O88943 whole entry, looked up): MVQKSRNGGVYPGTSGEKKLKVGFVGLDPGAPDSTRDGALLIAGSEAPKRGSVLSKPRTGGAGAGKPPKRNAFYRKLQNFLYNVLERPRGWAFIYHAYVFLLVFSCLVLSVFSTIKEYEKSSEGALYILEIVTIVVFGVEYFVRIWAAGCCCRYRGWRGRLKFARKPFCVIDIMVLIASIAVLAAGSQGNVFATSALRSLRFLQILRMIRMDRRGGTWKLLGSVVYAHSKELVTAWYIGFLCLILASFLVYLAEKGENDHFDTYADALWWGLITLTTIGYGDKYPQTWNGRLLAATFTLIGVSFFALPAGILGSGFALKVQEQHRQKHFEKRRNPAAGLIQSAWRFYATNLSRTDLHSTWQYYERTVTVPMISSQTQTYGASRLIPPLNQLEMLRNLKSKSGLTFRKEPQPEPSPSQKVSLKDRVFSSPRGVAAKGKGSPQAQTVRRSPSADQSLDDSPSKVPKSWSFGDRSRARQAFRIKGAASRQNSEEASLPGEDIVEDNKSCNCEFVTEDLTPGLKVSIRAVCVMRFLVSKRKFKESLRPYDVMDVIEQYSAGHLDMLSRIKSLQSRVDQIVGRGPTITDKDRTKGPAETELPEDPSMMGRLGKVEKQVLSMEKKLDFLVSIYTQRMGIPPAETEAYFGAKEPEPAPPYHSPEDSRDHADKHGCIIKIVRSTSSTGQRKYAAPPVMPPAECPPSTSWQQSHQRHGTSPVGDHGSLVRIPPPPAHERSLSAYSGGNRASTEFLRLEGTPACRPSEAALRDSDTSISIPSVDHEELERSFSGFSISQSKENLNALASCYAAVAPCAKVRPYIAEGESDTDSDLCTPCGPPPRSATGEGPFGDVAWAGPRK
KCNQ2 pot baseline = recorded beside KCNQ2 pot, whose call it bears; B-score; compound at 10 µM; measured here: initial fluorescence intensity artifact check;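 brightness before thallium and not channel activity; 0 = typical well and far values either way flag optical interference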
The depositor's hits bear a star; nt = not tested or not shown. These rows are one share of the data; rates above refer to the full screens.

SMILES | KCNQ2 pot | KCNQ2 pot baseline
CC(C)CNC(=S)NC(=O)c1ccc([N+](=O)[O-])cc1 | 1.8 | 0.45
CC(NC(=O)c1ccc(C(C)(C)C)cc1)C(=O)O (stereo not drawn) | 1 | 0.01
Cc1ccc2[nH]c(=O)c(CN(C)C(=O)c3cccs3)cc2c1 | 0.82 | -1.6
O=C(NC(=S)Nc1ccccc1)c1ccc(Br)o1 | 8.2* | 0.1*
CCn1cc(C(=O)OCC(=O)N(C)Cc2ccccc2)c(=O)c2ccc(C)nc21 | 2.2 | 0.53
COc1ccc(NC(=O)c2ccco2)cc1NC(=O)c1cccs1 | 0.42 | 0.03
CCOC(=O)N1CCN(C(=O)COC(=O)c2cc(Cl)c(O)c(Cl)c2)CC1 | 1.4 | -0.15
COc1ccc2c(c1)C1NC(=S)N[C@@](C)(O2)C1C(=O)Nc1ccccc1 (stereo partly drawn) | 0.6 | 1.1
O=C1c2ccccc2C(=O)N1CCc1nc(-c2ccccn2)no1 | 2.2 | -0.25
COc1ccc(C(=O)C2CCCN(C(=O)c3ccnn3C)C2)c(C)c1 (stereo not drawn) | 1.2 | -0.09
N#Cc1cccc(CN2CCC(=O)N([C@H](CO)Cc3ccccc3)CC2)c1 | 0.71 | -1.4
Cc1ccc(NC(=O)CC2SC(=NC3CCCCC3)NC2=O)cc1 (stereo not drawn) | 0.7 | 0.06
O=c1[nH][nH]c(C(F)(F)F)c1C=Nc1ccc(Cl)cc1 | 0.19 | -0.02
CC1CCc2c(sc3ncnc(SCC(=O)Nc4ccc(C(=O)O)cc4)c23)C1 (stereo not drawn) | 0.97 | -2.5
COc1ccccc1N1CCN(C(=O)CCC(=O)Nc2nnc(C(C)C)s2)CC1 | 0.51 | 1.2
C[C@H]1C=C(C(=O)N2CCN(Cc3ccc4c(c3)OCO4)CC2)O[C@@H](OCc2ccc(CO)cc2)C1 | 0.17 | -0.54
C=CCn1c2ccccc2c2nnc(SCC(=O)NC(C(=O)OC)C(C)C)nc21 (stereo not drawn) | 0.05 | -1.6
COC1CCCN(Cc2cn(C)nc2-c2ccc(Oc3ccccc3)cc2)C1 (stereo not drawn) | 1.3 | -0.92
COc1ccccc1C1NC(=O)NC(C)=C1C(=O)OCc1ccccc1 (stereo not drawn) | 1.5 | 0.13
COc1ccc2c(c1)CC/C(=C/c1cc(OC)c(OC)c(OC)c1)C2=O | 0.1 | -1.4
CC(=O)c1sc(NC(=O)c2ccc(Cn3cc(Br)cn3)o2)nc1C | 0.04 | 0.17
Cc1ccc(NC2CCCN(C(=O)c3cn4cc(Cl)ccc4n3)C2)cc1C (stereo not drawn) | 0.39 | -0.97
COc1cccc(NC(=O)CN(C)C(=O)CCCc2nc3ccccc3s2)c1 | 2.2 | -0.05
Cc1cc(C(=O)Nc2nc3ccc(Cl)cc3s2)nn1C | 0.53 | 0.39
CSc1ncccc1C(=O)N1CCN(S(=O)(=O)c2ccc(C)cc2)CC1 | 1.1 | 0.55
COc1cccc(CN(C)C(=O)c2cc(S(=O)(=O)N3CCN(c4ccccc4)CC3)ccc2Cl)c1 | -5.6 | nt
Cc1ccc(S(=O)(=O)Nc2cccc(C(=O)NCCCN3CCCC3=O)c2)cc1F | 1.2 | -1.1
CCOc1ccc(/C(O)=C2/C(=O)C(=O)N(CCOCCO)C2c2ccc(F)cc2)cc1 (stereo not drawn) | 0.87 | -0.46
Cc1ccc(NC(=O)CNCCCN2CCOCC2)cc1S(=O)(=O)N1CCCCC1 | 0.68 | 0
CC(=O)c1c(N(C)C)ccnc1C(F)(F)F | 1 | -1.2
CC(C)N1CCC(=NNC(=O)c2ccc(Br)o2)CC1 | 0.08 | 2.2
O=C(Nc1c(F)cccc1F)C(c1ccccc1)c1ccccc1 | 0.47 | 0.34
CCCC(=O)Nc1ccc(C(=O)n2ccc(C)n2)cc1 | 0.07 | -0.01
O=C(CN1C(=O)CCC1=O)NNc1ccc2ccccc2c1 | 0.4 | -1.5
CCN(CC)c1ccc(S(=O)(=O)N2CCOCC2)cc1NC(=O)COC(=O)c1ccco1 | 0.57 | -0.22
CC(=O)c1cccc(NC(=O)NNC(=O)CCC(=O)Nc2ccc(C)c(C)c2)c1 | 0.05 | 0.81
Cn1cc(CN2CCN(CC(C)(C)C)C(CCO)C2)c2ccccc21 (stereo not drawn) | 0.29 | -0.17
c1ccc(Nc2ccnc(Nc3ccccc3)n2)cc1 | 1.6 | -0.07
CC(C)(CO)N=C1NS(=O)(=O)c2cc([N+](=O)[O-])ccc21 | 1.9 | 1.7
O=C(O)CCC1(CCC(=O)O)c2ccccc2-c2ccccc21 | 0.8 | -1.1
COc1ccc(Cc2nnc(NS(=O)(=O)c3ccc(Cl)cc3)s2)cc1OC | 0.01 | 0
CCn1c(Cc2ccc(OC)cc2)nnc1SCC(=O)NC1CCCCC1 | 0.2 | -2.5
Nc1ncc(Br)cc1S(=O)(=O)NCCC(=O)NCCc1ccc(Cl)cc1 | 0.01 | -0.27
Cc1ccccc1NC(=S)NNC(=O)c1ccoc1C | 1.3 | 1.3
CS(=O)(=O)N1CCC(C(=O)Nc2cc(Cl)cc(Cl)c2)CC1 | 0.48 | 0.72
Cc1cc(C)n(-c2ccc(NC(=O)C3CCCCN3C(=O)c3sccc3C)cc2)n1 (stereo not drawn) | 3.2 | -0.47
O=S(=O)(NCCc1csc(-c2ccccc2)n1)c1cccnc1 | 0.08 | -0.06
CS(=O)(=O)NCCCNc1ccc(C(F)(F)F)cc1[N+](=O)[O-] | 0.56 | -1.6
Cc1cc(C)c(CN2CCC(n3nccc3NC(=O)C3CCCC3)CC2)cc1C | 0.56 | 0.87
Cc1cc(C(=O)N2CCc3ccccc3C2)n[nH]1 | 0.02 | -0.09
O=C(CSc1nc2ncccc2[nH]1)NCc1ccccc1 | 1.2 | 1.3
COC(=O)C1=C(C(=O)OC)SC2(S1)C(C(=O)OC)=C(C(=O)OC)SC1=C2c2cc(C)ccc2NC1(C)C | 1.8 | -1.3
COc1cnn(-c2cccc(Cl)c2)c(=O)c1Cl | 0.52 | -0.77
Cc1ccc(-n2nc(C)c3c(=O)[nH]c(C(F)(F)F)nc32)cc1 | 0.66 | 1.6
CC(=O)N1CCC2(CC1)C/C(=N\NC(=S)Nc1ccccc1C)c1cc(O)ccc1O2 | 0.01 | 0.14
O=C(NCc1ccco1)Nc1ccc([N+](=O)[O-])cc1 | 1.7 | 0.03
Cc1csc(=Nc2ccccc2)n1CCO | 0.14 | -1
CCN(CC(=O)Nc1c(F)cccc1F)C(=O)/C=C/c1cn(Cc2ccccc2)nc1-c1cccnc1 | 1.1 | -1.8
C=CCNc1nc(C)nc(OC)n1 | 1.8 | 1.7
O=C(O)c1cccc(S(=O)(=O)NCCc2ccccc2)c1 | 0.43 | 0.71

Following part:
SMILES | KCNQ2 pot | KCNQ2 pot baseline
Cc1cc(C)n(/N=C/c2cccs2)c(=O)c1C#N | 0.94 | -1.1
CC(=O)Nc1ccc(NC(=O)c2ccc3c(c2)C(=O)N(c2ccccc2C)C3=O)cc1 | 0.19 | -1.4
O=C(COC(=O)c1ccc([N+](=O)[O-])o1)Nc1cccc(S(=O)(=O)N2CCCCC2)c1 | 0.25 | 0.62
Cc1cc(NC(=O)CSc2ccc3nnc(-c4ccccn4)n3n2)no1 | 0.29 | 1.2
CC(=O)NCC1CCCN(C(=O)c2ccc(OC3CCN(Cc4ccccn4)CC3)cc2)C1 (stereo not drawn) | 0.08 | -0.03
COc1cccc(CNC(=O)C2CCCN(S(=O)(=O)N3CC(C)CC(C)C3)C2)c1 (stereo not drawn) | 3.5 | 0.16
CCn1c(SCC(=O)Nc2nccs2)nnc1-c1cccnc1 | 0.7 | -0.01
O=S(=O)(c1cccc2c(S(=O)(=O)N3CCCC3)cccc12)N1CCCC1 | 1.8 | -0.28
CCN(CC(=O)Nc1c(F)cccc1F)C(=O)c1ccc(N2CCCC2)c([N+](=O)[O-])c1 | 0.15 | -0.55
Cc1c(C)[n+](=O)c(-c2ccco2)c(C)n1[O-] | 0.01 | -0.86
Cc1cc(C)c(S(=O)(=O)N2CCCCC2CCNC(=O)C(=O)NCC2CCCO2)c(C)c1 (stereo not drawn) | 1 | -0.19
O=C1C2C3C=CC(C2C(=O)N1c1ccc(O)cc1)C1C2C(=O)N(c4ccc(O)cc4)C(=O)C2C31 (stereo not drawn) | 0.07 | -0.26
COc1c(C)cc(Br)cc1C(=O)Nc1cccc(NC(=O)c2ccco2)c1 | 0.32 | -0.32
COCc1cc(C)nc(Sc2nc3c(c(=O)n(C)c(=O)n3C)n2C)c1C#N | 0.69 | 0.52
CCn1cc(C(=O)N(C)c2ccc(OC)cc2OC)c2cc(OC)c(OC)cc2c1=O | 0.12 | 0.77
CN1CCN(C(=O)/C(=C\c2cccnc2)NC(=O)c2cccc(Br)c2)CC1 | 0.36 | 0.93
COCCCN(CC(=O)O)S(=O)(=O)c1cccc(Cl)c1 | 0.65 | 0.89
CS(=O)(=O)Cc1ccc(C(=O)N2CCCC2c2cccs2)cc1 (stereo not drawn) | 0.8 | 1.1
CCNc1nnc(-c2ccncc2)s1 | 0.56 | -0.48
CC1CCCN(S(=O)(=O)c2coc(C(N)=O)c2)C1 (stereo not drawn) | 0.65 | -0.07
O=C(CSc1nnc(COc2ccc(Br)cc2)o1)NC1CCCCC1 | 0.64 | -1.1
O=C(COC(=O)C1CC2C=CC1C2)Nc1cccc(S(=O)(=O)N2CCCCCC2)c1 (stereo not drawn) | 1.6 | 0.65
C[C@@H](NC(=O)c1nc[nH]c1C(=O)NCC(=O)OC(C)(C)C)c1ccccc1 | 2.1 | 0.61
O=S(=O)(/N=C(/c1ccccc1)N1CCCCC1)c1ccccc1 | 0.64 | 0.7
CCN(CC)C1CCN(C(=O)c2ccc(OC3CCN(CCc4ccccc4)CC3)cc2)C1 (stereo not drawn) | 0.81 | -0.09
Cc1cc(OCC(=O)NCc2cccnc2)c2c(C)c(C)c(=O)oc2c1 | 0.57 | 1.3
COc1ccc(OCc2cc(C(=O)N[C@H]3CCCCNC3=O)no2)c(Cl)c1 | 2.6 | 0.42
COc1ccc(OC)c(NC(=S)NCc2cccnc2)c1 | 0.05 | 0
O=C1CC(SC2=NCCS2)C(=O)N1c1cccc(Cl)c1Cl (stereo not drawn) | 0.97 | 0.3
COc1ccc(C(=O)COc2ccc3ccc(=O)oc3c2)cc1 | 0.52 | -0.65
O=C(CNC(=O)c1ccc(Cl)cc1Cl)OCc1nc2ccccc2s1 | 1.6 | 0.54
C[C@@H](O)C1NC(=O)[C@H](CCCCN)NC(=O)c2cc([N+](=O)[O-])cc(F)c2NCCCC[C@@H](C(N)=O)NC1=O (stereo partly drawn) | 0.75 | 0.03
NC(=O)CC(NC(=O)c1cccc(Br)c1)c1ccc(NCC2CC2)c([N+](=O)[O-])c1 (stereo not drawn) | 1.8 | 1.2
Cc1ccc(NC(=S)NCCC2=CCCCC2)cc1 | 1.2 | -0.49
Cc1cnc(NC(=O)c2cc3c(s2)CCCC3)s1 | 0.18 | -1.5
O=C(Cc1ccc([N+](=O)[O-])cc1)NCc1ccc2c(c1)OCO2 | 0.17 | 1.4
O=C(CCCN1C(=O)c2ccccc2C1=O)N1CCCCC1 | 0.06 | -0.84
O=[N+]([O-])c1cc(Br)cc(/C=N/n2cnnc2)c1O | 0.2 | -1.8
O=C(CCN1C(=O)c2ccccc2C1=O)C1=NN[C@@H]2C(=O)N(c3cccc(Cl)c3)C(=O)[C@H]12 | 0.12 | -0.04
O=c1c2cc(Br)ccc2nc(-c2ccc(Cl)cc2)n1O | 17* | -2*
COc1cc(OC)c(C(=O)NCC2CCCO2)cc1OC (stereo not drawn) | 2 | -3.4
Cc1csc2nc(O)c(C(=O)NC3CCCCCC3)c(=O)n12 | 0.01 | -1.4
CC(=O)/C(N=Nc1ccc(SC(F)F)cc1)=C(\C)O | 1.6 | -1.2
Oc1[nH]c2ccccc2c1N=Nc1nc2ccccc2s1 | 4.9 | 1.6
Cn1c(SCC(=O)N2CCN(c3ccccc3)CC2)nnc1-c1c[nH]c2ccccc12 | 0.58 | -2.5
Nc1cnn(C2CCCO2)c(=O)n1 (stereo not drawn) | 0.59 | 1.1
Cc1cccc(C(=O)OCC(=O)Nc2ccc(N3CCCCC3)cc2)c1O | 0.17 | 0.07

Some of the entries so far, with two lines to a compound:
Fields – KCNQ2 pot | KCNQ2 pot baseline
- COc1cc(OC)c(C(=O)NCC2CCCO2)cc1OC (stereo not drawn)
→ 2 | -3.4
- Cc1csc2nc(O)c(C(=O)NC3CCCCCC3)c(=O)n12
→ 0.01 | -1.4
- CC(=O)/C(N=Nc1ccc(SC(F)F)cc1)=C(\C)O
→ 1.6 | -1.2
- Oc1[nH]c2ccccc2c1N=Nc1nc2ccccc2s1
→ 4.9 | 1.6
- Cn1c(SCC(=O)N2CCN(c3ccccc3)CC2)nnc1-c1c[nH]c2ccccc12
→ 0.58 | -2.5

A different layout for part of the listing above:
NC(=O)CC(NC(=O)c1cccc(Br)c1)c1ccc(NCC2CC2)c([N+](=O)[O-])c1 (stereo not drawn)
- KCNQ2 pot: 1.8
- KCNQ2 pot baseline: 1.2
O=C(CNC(=O)c1ccc(Cl)cc1Cl)OCc1nc2ccccc2s1
- KCNQ2 pot: 1.6
- KCNQ2 pot baseline: 0.54
CC(=O)/C(N=Nc1ccc(SC(F)F)cc1)=C(\C)O
- KCNQ2 pot: 1.6
- KCNQ2 pot baseline: -1.2
Cc1ccc(NC(=S)NCCC2=CCCCC2)cc1
- KCNQ2 pot: 1.2
- KCNQ2 pot baseline: -0.49
